RE007 growth inh: qHTS Assay for Inhibitors of the HIV-1 protein Vpr; S. pombe RE007 Vpr strain, BacTiter-Glo ATP luminescence, 24 h; control for the full effect not named in the record; Potency, µM (highest dose often 92.2 µM), inactives show at the highest dose activity change, negative = less growth; 0.21% of 360,000 active; AID 651644, 2012; active = well fitted falling curve with a large enough effect; inconclusive = small, poorly fitted or top-dose-only effect; inactive = no such curve, though single readings can be large or run the other way;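 note: % is set by controls: 0 for no effect and ±100 for the full control effect; nearly all actives have a fitted effect of over 50% in size; the assay follows cell death caused by Vpr and the record does not say whether a fall means rescue or toxicity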
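Fission yeast RE007 carrying one integrated HIV-1 vpr copy, seeded at OD 0.01 in PMG+AL medium with 23 nL pinned compound. Grown 24 h at 30 degrees; viability read by BacTiter-Glo luminescence after 5 min.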
Cruzain noTriton: qHTS Assay for Promiscuous and Specific Inhibitors of Cruzain (without detergent); Potency, µM, for inactives: max response, negative = inhibition, actives largely listed as inhibitors; AID 1476, 2009; 2.3% of 200,000 active; purified cruzain, Z-FR-AMC fluorescence, no detergent; active = well fitted curve in the direction sought with a large enough effect; inconclusive = small, poorly fitted or top-dose-only effect, or another doubt; inactive = no such curve, though single readings can be large; an effect the other way counts as inactive or inconclusive;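 note: plate controls were enzyme without inhibitor for no effect and buffer without enzyme for full effect; nearly all actives have a fitted effect of over 40% in size; top concentration of the series not given in the record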
Target sequence (P25779 123-467 limits assumed): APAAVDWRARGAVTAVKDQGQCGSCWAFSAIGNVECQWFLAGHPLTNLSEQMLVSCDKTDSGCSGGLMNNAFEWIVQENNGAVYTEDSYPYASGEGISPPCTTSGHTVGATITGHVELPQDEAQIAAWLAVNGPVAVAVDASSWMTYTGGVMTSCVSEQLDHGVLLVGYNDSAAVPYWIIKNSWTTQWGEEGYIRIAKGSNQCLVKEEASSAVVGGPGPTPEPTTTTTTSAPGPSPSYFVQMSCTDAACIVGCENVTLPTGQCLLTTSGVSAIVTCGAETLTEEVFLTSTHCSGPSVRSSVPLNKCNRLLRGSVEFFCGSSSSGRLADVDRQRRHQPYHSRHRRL
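Detergent-free condition (0.00005% Triton X-100) in acetate buffer pH 5.5 with DTT. 1.5 nM enzyme and compound were pre-mixed 15 min, then 2 uM Z-FR-AMC substrate added; reaction progress from fluorescence change between first and third reads (60 s).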
2A StopGo: High Throughput Screening for Foot and Mouth Disease Virus Antivirals | human cells with a luciferase reporter of 2A StopGo recoding; control for the full effect not named in the record | Potency, µM (highest dose often 57.9 µM), for the others: at the top dose signal change, negative = less light | 1.2% of 410,000 active; active = well fitted falling curve with a large enough effect; inconclusive = small, poorly fitted or top-dose-only effect; inactive = no such curve, though single readings can be large or run the other way; tested in HEK293T cells; note: % is set by controls: 0 for no effect and ±100 for the full control effect; nearly all actives have a fitted effect of over 45% in size; luciferase light after 4 h
MARV entry inh: qHTS for inhibitors of binding or entry into cells for Marburg Virus; Marburg virus pseudotyped entry inhibition, cell reporter; control for the full effect not named in the record; about a third of the inactives were read at about 46 µM; Potency, µM (series often up to 37.8 µM), for the others: at the highest dose activity change, negative = inhibition, hits mostly inhibitors; 1.8% of 300,000 active; active = well fitted inhibition curve with a large enough effect; inconclusive = small, poorly fitted or top-dose-only effect, or effect the other way; inactive = flat fitted curve, though single readings scatter; tested in HEK293 cells; about a fifth of its hits are not listed in these tables; note: % is set by controls: 0 for no effect and ±100 for the full control effect; luciferase read-out
NS1 inh: qHTS Assay for Inhibitors of Influenza NS1 Protein Function. 0.4% of 270,000 active. AID 2326, 2010. Potency, µM (highest dose often 46.1 µM), inactives show top-dose activity, positive = more growth. S. cerevisiae slowed by influenza A NS1, growth recovery by OD600; note: actives are rising curves; nearly all actives have a fitted effect of over 50% in size
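A cell-based growth assay was used: compounds that relieve NS1-induced slow growth of budding yeast raise OD600. Assay medium was yeast nitrogen base with ammonium sulphate and -URA supplement, pH 6.0, with 2% galactose.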
Lassa entry inh: qHTS for Inhibitors of binding or entry into cells for Lassa Virus; Lassa virus pseudotype entry inhibition, cell reporter; control for the full effect not named in the record; Potency, µM (highest dose often 37.9 µM), for inactives: at the highest dose activity change, negative = inhibition, actives largely listed as inhibitors; 1.2% of 300,000 active; AID 540256, 2011; active means well fitted inhibition curve with a large enough effect; inconclusive means small, poorly fitted or top-dose-only effect, or effect the other way; inactive means flat fitted curve, though single readings scatter; tested in HEK293 cells; note: % is set by controls: 0 for no effect and ±100 for the full control effect; nearly all actives have a fitted effect of over 50% in size; luciferase read-out
SARS PLP yeast: qHTS of Yeast-based Assay for SARS-CoV PLP; S. cerevisiae expressing SARS-CoV PLpro, growth rescue; control for the full effect not named in the record; Potency, µM (highest dose often 32.9 µM), inactives show top-dose activity, positive = growth rescue; 0.19% of 330,000 active; note: 0% is about no effect; nearly all actives have a fitted effect of over 55% in size; growth read by luminescence after 48 h
Cruzain inh Det: qHTS Assay for Promiscuous and Specific Inhibitors of Cruzain (with detergent); purified cruzain, Z-FR-AMC fluorescence, 0.01% Triton; Potency, µM, inactives show max response, negative = inhibition, usual class: inhibitors; Cruzipain (Trypanosoma cruzi), P25779; 0.43% of 200,000 active; active = well fitted curve in the direction sought with a large enough effect; inconclusive = small, poorly fitted or top-dose-only effect, or another doubt; inactive = no such curve, though single readings can be large; an effect the other way counts as inactive or inconclusive;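 note: plate controls were neutral wells for no effect and buffer without enzyme for full effect; nearly all actives have a fitted effect of over 40% in size; top concentration of the series not given in the record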
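Enzyme 1.5 nM, Z-FR-AMC 2 uM, NaOAc 100 mM pH 5.5, DTT 5 mM, Triton X-100 0.01%; 15 min RT compound preincubation; kinetic ex360/em450, 60 s delta.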
Active calls of the source: *; ? = inconclusive; / = not tested or not shown; & = joins results of further samples; [ ] = another dose, or the depositor's remark. Unless noted, calls come from the whole dose curve; as a rule, active means well fitted rising curve with a large enough effect; inconclusive means small, poorly fitted or top-dose-only effect; inactive means no such curve, though single readings can be large or run the other way. Potency is the fitted concentration of half-maximal effect. Not a hit list, and some 4.6% of all compounds hit somewhere here.

Second line of a record – RE007 growth inh	Cruzain noTriton	2A StopGo	MARV entry inh	NS1 inh	Lassa entry inh	SARS PLP yeast	Cruzain inh Det
C[C@H](NC(=O)c1nc[nH]c1C(=O)N[C@@H](C)C(=O)OCc1ccccc1)C(=O)OCc1ccccc1
  11%	/	-3%	/	?	/	3%	/
Cc1cc(NS(=O)(=O)c2ccc(NC(=O)COc3ccccc3C(C)C)cc2)no1
  -12%	9%	1%	/	-47%	/	-2%	-19%
COc1cccc(-n2c(N)cc(=O)nc2SCC(=O)Nc2cc(C)on2)c1
  -9%	/	0%	20%	1%	-3%	-10%	/
Cc1ccc(OCc2cc(C(=O)NCc3cn4ccccc4n3)no2)cc1C
  5%	/	-25%	/	5%	/	-17%	/
COc1ccc(N2C(=O)C(Cc3ccccc3)NC2=S)cc1 (stereo not given)
  3%	/	27%	4%[46.1 µM]	4%	/	-4%	/
CCOc1cc(S(=O)(=O)N2CCN(S(=O)(=O)CC)CC2)c(OCC)cc1-n1cnnn1
  -11%	/	17%	11%[46.1 µM]	-12%	-14%[46.1 µM]	-2%	/
CC(C)(C)c1ccc(S(=O)(=O)N2CCc3nc4ccccc4c(C(=O)O)c3C2)cc1
  3%	/	-15%	/	-1%	/	0%	/
Cc1csc(NC(=O)NC2(C(F)(F)F)Oc3ccccc3O2)n1
  5%	-6%	-20%	?	-5%	?	0%	-1.7%
O=C(CN1CCc2ccccc2C1)N1CCN(S(=O)(=O)c2ccccc2)CC1
  5%	0%	-16%	3%	3%	-2%	-1%	1.6%
O=C(Cn1nnc(-c2ccccc2-n2cnnn2)n1)N1CCCCC1
  9%	-7%	-18%	5%	12%	14%	1%	0.8%
COc1ccccc1N1CCN(C(=O)c2cc3c(=O)oc4ccccc4c3s2)CC1
  /	4%	16%	8%[46.1 µM]	/	8%[46.1 µM]	/	0.5%
COc1cc(C)c2c(c1OC)C(=O)CC2
  -23%	/	-16%	?	/	13%	/	/
Cc1ccsc1C(=O)OCC(=O)N1CC(=O)Nc2ccccc21
  9%	8%	3%	-3%[46.1 µM]	1%	-7%	6%	4.4%
CCOC(=O)c1c(CSCc2ccccc2)oc2ccc(O)c(CN(C)C)c12
  -9%	/	?	?	-1%	?	0%	/
COc1cc(OC)cc(OCC(O)Cn2ccnc2)c1 (stereo not given)
  1%	3%	/	1%	-8%	6%	-4%	4.9%
CCCn1c(N2CCN(C(=O)/C=C/C(=O)O)CC2)nc2ccccc21
  26%	/	2%	?	-4%	-1%[46.1 µM]	1%	/
O=C(c1cn(-c2ccc(Cl)c(Cl)c2)nn1)C1CC1
  4%	/	55%[activator]	?	/	17%	-1%	/
CCc1ccc(CNC(=O)C2CCN(c3nnc(-n4c(C)ccc4C)s3)CC2)cc1
  /	14%	-11%	2%[46.1 µM]	/	-1%[46.1 µM]	/	-3.5%
O=C1c2ccccc2C(=O)N1CCOc1ccccc1Br
  -4%	/	12%	?	-16%	-25%[46.1 µM]	1%	/
O=c1cc(COc2ccccc2[N+](=O)[O-])nc2sccn12
  5%	/	0%	3%[46.1 µM]	4%	6%	-2%	/
CCc1nnc(NC(=O)C2CCCN(S(=O)(=O)c3ccc(OC)cc3)C2)s1 (stereo not given)
  -8%	/	-13%	-23%[14.2 µM]	0%	-19%	1%	/
CC(C)(C)C1CCc2nc(NC(=O)COc3ccc(F)cc3)sc2C1 (stereo not given)
  /	12%	-22%	?	/	19%[46.1 µM]	/	2.5%
CC(C)(C)c1ccc(C(=O)N2CCN(CCc3ccccn3)CC2)cc1
  /	1%	-11%	9%[46.1 µM]	/	-6%[46.1 µM]	/	0.9%
CCOC(=O)C(=CNc1nc2ccc(C(=O)OCC)cc2s1)C(=O)OCC
  -8%	/	-12%	/	4%	/	1%	/
O=C(CCC(=O)N(CC(=O)NC1CCCCC1)Cc1ccccc1)Nc1nccs1
  14%	/	-13%	?	1%	/	4%	/
O=[N+]([O-])c1ccc(N=Nc2ccc(O)c3ccccc23)cc1
  -9%	/	-25%	?	/	-23%[46.1 µM]	/	/
CS(=O)c1ccccc1O (stereo not given)
  12%	/	-17%	/	-3%	/	1%	/
O=[N+]([O-])c1cccc(S(=O)(=O)Nc2cccc(-c3ccc(N4CCOCC4)nn3)c2)c1
  1%	/	55%[activator]	-3%	/	?	2%	/
CCN(CC)S(=O)(=O)c1ccc(NS(=O)(=O)c2ccc(F)cc2)cc1
  2%	1%	28%	-25%	?	-17%	8%	-2.6%
O=c1cc(-c2ccccc2Cl)oc2cc(O)cc(O)c12
  22%	-5%	47%[activator]	?	-3%	?	4%	-9.9%
CCc1cccc(NC(=O)CN2c3ccccc3S(=O)(=O)c3ccccc32)c1
  /	-23%	-3%	/	/	-9%[46.1 µM]	/	-11%
O=C(COc1ccc(Br)cc1Br)NC(=O)NC1CCCC1
  ?	/	29%	?	/	-9%	0%	/
CN(C)CCOc1ccccc1-c1ccccc1
  12%	9%	-6%	13%	2%	-1%	9%	7.2%
Cc1ccc(NCC(=O)N/N=C/c2cccc(Oc3ccccc3)c2)cc1
  3%	-24%	?	4%	19%	2.3µM*	-5%	-8.4%
Nc1nncn1C(=O)CCCOc1ccc(Cl)cc1Cl
  -4%	9%	3%	0%	-45%	-3%	-5%	-3.1%
CCOc1ccc(CN2CCc3nc(N4CCN(c5ccccc5OC)CC4)ncc3C2)cc1OC
  /	18%	20µM*	/	/	?	/	-4.4%
Cc1ccccc1CNc1nnnn1C
  9%	/	3%	12%[46.1 µM]	2%	4%[46.1 µM]	0%	/
Cc1cc(N)n(-c2ccc(S(=O)(=O)N3CCCC3)cc2[N+](=O)[O-])n1
  -2%	/	-3%	7%[46.1 µM]	12%	21%	7%	/
CCN(CC)S(=O)(=O)c1ccc2c(c1)c(=O)c(C(=O)NCCc1ccccc1)cn2C
  3%	9%	-6%&-7%	1%&20%[46.1 µM]	2%	4%&16%[46.1 µM]	0%	-0.7%
CCCNC(=O)Cn1c(=O)/c(=C/c2ccc(-c3ccc([N+](=O)[O-])cc3)o2)s/c1=C\C(=O)C(C)(C)C
  -12%	/	-1%	?	/	2%[46.1 µM]	/	/
COC(=O)C1CCN(C(=O)COC(=O)c2cccc(NS(=O)(=O)c3ccccc3)c2)CC1
  1%	/	11%	-5%	/	1%	-11%	/
COc1cccc(-n2nnc3c(=O)n(Cc4ccccc4F)cnc32)c1
  23%	-3%	71%[activator]	11%	1%	?	-3%	-1.7%
CN(Cc1ccccc1)C(=O)c1ccc2c(c1)S(=O)(=O)N=C1CCCCCN12
  21%	/	11%	2%[46.1 µM]	/	0%[46.1 µM]	1%	/
Cc1cc(Nc2nc(Cl)c(Cl)cc2Cl)n(-c2ccccc2)n1
  3%	6%	-2%	-20%	-10%	-8%	10%	-11%
COc1ccc(OC)c2sc(N3CCN(C(=O)C4CC4)CC3)nc12
  /	-5%	6%	/	/	6%[46.1 µM]	/	-1.6%
O=C(Cn1c(=O)[nH]c2ccccc2c1=O)N1CCN(c2cccc(Cl)c2)CC1
  -4%	/	-22%	-9%	/	?	1%	/
O=C(CCN1C(=O)C2C3C=CC(C3)C2C1=O)Nc1ccccc1F (stereo not given)
  1%	0%	2%	-4%[46.1 µM]	-2%	9%	?	2.2%
O=C(CSc1nnc(Cn2nnc3ccccc32)o1)N(Cc1ccc(F)cc1)c1ccccc1
  3%	5%	/	?	6%	?	0%	-3.0%
Cc1nn(-c2ccc(Cl)c(Cl)c2)c(=O)c2ccccc12
  ?	-7%	30%	?	22%	1%	3%	0.6%
CCOc1ccccc1NC(=O)Nc1cc(S(=O)(=O)N(C)C)ccc1C
  -3%	/	3%	4%[46.1 µM]	3%	-15%	0%	/

(list continues)
Second line of a record – RE007 growth inh	Cruzain noTriton	2A StopGo	MARV entry inh	NS1 inh	Lassa entry inh	SARS PLP yeast	Cruzain inh Det
c1ccc(-c2nnc(-c3ccccc3)nn2)cc1
  0%	/	-38%	?	-3%	?	-1%	/
CN(C)N1C(N)=C(C#N)C(c2ccc(Br)cc2)C2=C1CCCC2=O (stereo not given)
  -12%	/	-4%	5%	0%	/	0%	/
C[C@@H]1CC[C@]2(O[C@@H](CCO)C[C@H](O)[C@H]2O)O1
  1%	-8%	-28%	12%	22%	13%	-14%	2.1%
CCOC(=O)N1CCC(N2CC34C=CC(O3)C(C(=O)Nc3ccc(F)cc3)C4C2=O)CC1 (stereo not given)
  4%	-6%	4%	-3%	-20%	/	-5%	0.6%
CC12CCC(C(=O)NCCCN3CCOCC3)(OC1=O)C2(C)C (stereo not given)
  3%	3%	-12%	?	4%	?	-2%	3.2%
CC(C)(C)SCCNS(=O)(=O)c1ccc(Cl)cc1
  -3%	/	38%[activator]	-18%[46.1 µM]	-1%	-3%	1%	/
CC(C)c1ccc(NS(=O)(=O)c2ccc3c(c2)NC(=O)CO3)cc1
  8%	/	14%	/	10%	/	-2%	/
COc1ccc(/C=C2\SC(=S)N(CC(=O)N(C)C3CCS(=O)(=O)C3)C2=O)cc1 (stereo not given)
  5%	/	7%	/	-2%	/	7%	/
CCN(CC)c1ccc(/C=N/N2CCN(Cc3ccccc3)CC2)c(O)c1
  -9%	-3%	-20%	-9%	-9%	2%	-3%	-1.7%
COc1ccccc1C1NC(=O)CS1 (stereo not given)
  12%	4%	-17%	-17%[46.1 µM]	-4%	9%	3%	3.8%
COc1cc2c(cc1OC)C(C)N(C(=O)CCN1C(=O)C3C4C=CC(C4)C3C1=O)CC2 (stereo not given)
  -10%	0%	0%	20%	-2%	-20%	2%	-1.5%
CC(=O)N1CCN(C(=O)c2cc(S(=O)(=O)N3CCN(c4ccccc4)CC3)ccc2Cl)CC1
  -7%	/	-11%	5%	/	16%	5%	/
O=C(Nc1nnc(C2CC2)s1)C1CCCO1 (stereo not given)
  4%	/	33%[activator]	0%	/	22%	-1%	/
COc1ccc(-c2nc3cc([N+](=O)[O-])ccc3o2)cc1
  -5%	/	42%[activator]	16%[46.1 µM]	-2%	/	0%	/

Screens (PubChem)
